HNF4A DNA FP = change in binding of human HNF4 alpha to DNA; hit rate 0.3% among 360,000; activity change, % at 10 µM; P41235; HNF4a-FITC DNA binding, fluorescence polarization, 1 h; in the data active means activity change above about 30%, passing the limit was not always enough;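 further: controls were the assay level and a saturating level of protein; the project sought stronger binding though the title names inhibitors; some compounds called inactive have numbers as strong as hits; positive values seem to mean higher polarization but the record does not say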
LANA-H2B inh = blocks KSHV LANA binding to histone H2A/H2B. Q9QR71. inhibition, % (no concentration beside the values). cell-free LANA-H2A/H2B peptide, fluorescence polarization. AID 2629. hit rate 0.6% among 320,000; in the data active means inhibition mostly above about 10%, no sharp cut-off; inactive means mostly below about 6.7%;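 further: stock transfer was 7.5 nL into about 10 µL; 0% = median of vehicle wells and 100% = median of positive control wells; one replicate is shown; the record names a cut of 25% in any replicate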
Target sequence (Q9QR71 whole entry, looked up): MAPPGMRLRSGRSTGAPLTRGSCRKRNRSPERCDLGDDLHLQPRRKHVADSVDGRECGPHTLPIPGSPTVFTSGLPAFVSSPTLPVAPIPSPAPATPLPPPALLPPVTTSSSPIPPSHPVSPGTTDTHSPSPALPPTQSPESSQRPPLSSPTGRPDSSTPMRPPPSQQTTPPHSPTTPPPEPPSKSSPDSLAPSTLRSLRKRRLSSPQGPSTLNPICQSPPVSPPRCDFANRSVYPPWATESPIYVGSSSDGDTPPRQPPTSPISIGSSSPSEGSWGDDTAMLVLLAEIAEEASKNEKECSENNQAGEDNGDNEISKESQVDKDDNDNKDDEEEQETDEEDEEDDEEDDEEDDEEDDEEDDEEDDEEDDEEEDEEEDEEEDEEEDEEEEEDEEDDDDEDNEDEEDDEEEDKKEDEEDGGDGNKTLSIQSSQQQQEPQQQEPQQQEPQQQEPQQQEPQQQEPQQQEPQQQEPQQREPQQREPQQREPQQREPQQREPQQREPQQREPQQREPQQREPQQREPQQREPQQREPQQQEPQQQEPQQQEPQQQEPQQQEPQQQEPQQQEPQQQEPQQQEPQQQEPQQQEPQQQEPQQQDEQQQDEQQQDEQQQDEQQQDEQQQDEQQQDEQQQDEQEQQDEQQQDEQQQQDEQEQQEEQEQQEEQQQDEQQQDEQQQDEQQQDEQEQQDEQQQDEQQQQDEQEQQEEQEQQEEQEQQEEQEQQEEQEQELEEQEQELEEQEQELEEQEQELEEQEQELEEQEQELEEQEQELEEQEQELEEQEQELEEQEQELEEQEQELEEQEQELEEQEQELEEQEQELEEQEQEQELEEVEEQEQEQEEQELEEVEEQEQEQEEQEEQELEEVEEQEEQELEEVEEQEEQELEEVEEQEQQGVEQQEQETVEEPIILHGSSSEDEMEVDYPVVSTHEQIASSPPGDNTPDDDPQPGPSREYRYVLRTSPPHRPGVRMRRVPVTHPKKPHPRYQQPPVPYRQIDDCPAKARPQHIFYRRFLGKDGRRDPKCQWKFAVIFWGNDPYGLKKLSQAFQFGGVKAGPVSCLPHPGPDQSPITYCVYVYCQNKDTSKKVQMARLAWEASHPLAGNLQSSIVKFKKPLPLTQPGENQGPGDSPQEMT
ALR inh = inhibitors of human sulfhydryl oxidase ALR; purified ALR, DTT oxidation, H2O2 HRP-luminol luminescence; inhibition, % (test concentration not listed); hit rate 3.8% among 290,000; AID 485317;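 active means mean and each replicate at 75% or more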;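 further: stock transfer was 7.5 nL into about 7.5 µL; 0% = neutral wells and 100% = wells with inactivated enzyme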
Ecoli growth = inhibitors of Escherichia coli growth; hit rate 0.21% among 330,000; OD600, 23 h; stronger effect = lower value; OD600 absorbance (no concentration beside the values); AID 1053175;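 active means OD600 absorbance below the run mean of sample wells minus 3.6 SD, in any replicate, cut at about 0.56 in these data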;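 further: stock transfer was 300 nL into about 60 µL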
B2AR ag = activates human beta-2 adrenergic receptor causing internalization; hit rate 0.43% among 340,000; Am2.2-beta2AR cells, FAP receptor internalization, flow cytometry; reference of the scale not given here; P07550; AID 504454; response, % (no concentration beside the values);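 active means response above a set limit, near 3 SD of response in nonfluorescent compounds, cut at about 42% in these data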;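 further: stock transfer was 100 nL into about 11 µL; a reference agonist was the positive control; negative values mostly stem from fluorescent compounds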
UCH37 DUB inh = blocks the human deubiquitinase UCH37 | inhibition, % (no concentration beside the values) | Q9Y5K5 | purified proteasome/UCH37, Ub-AMC cleavage fluorescence | hit rate 0.33% among 330,000;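 active means mean of two replicates above 20%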;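 further: 0% = compound-free wells with enzyme and 100% = wells lacking proteasome; stock transfer was 100 nL into about 20 µL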
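System: Proteasome-associated human UCH37 deubiquitinase; Input: 0.15 nM proteasome in added enzyme buffer; Also added: Ub-AMC substrate from 1 µM stock; Incubation: 30 min compound-proteasome preincubation then 25 min substrate reaction, room temperature; Detection: fluorescence, ex 355 nm, em 460 nm; Read-out: % inhibition of Ub-AMC cleavage fluorescence; Benchmarks: no-proteasome and no-compound wells.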
FGF22 binding = binders of recombinant human FGF22 by thermal shift; Q9HCT0; SYPRO orange fluorescence; percent of sucrose octasulfate shift, DMSO zero; calls only at 9.99 µM; hit rate 1.5% among 340,000; AID 651658;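 active means melting point raised past a set limit in the mean and every replicate; three in four hits are not shown here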
The depositor's hits bear a star; i = inactive; . = no result given.

SMILES	HNF4A DNA FP	LANA-H2B inh	ALR inh	Ecoli growth	B2AR ag	UCH37 DUB inh	FGF22 binding
Clc1ccc(-c2nn3c(-c4ccccc4)nnc3s2)cc1	-1.7	1.6	-3	0.75	1	-3.0	.
CC(=O)O[C@H]1CC[C@@]2(C)C(=CC[C@H]3[C@@H]4CC[C@H](C5(C)OCCO5)[C@@]4(C)CC[C@@H]32)C1	1.5	-1.0	6	.	-1	-0.3	.
CN(C)CCCN(C(=O)c1cc(-c2cccs2)nc2ccccc12)c1nc2ccc(F)cc2s1	9.1	8.2	-6	0.63	16	-4.1	i
Cc1csc2nc(COC(=O)c3ccc(Cl)c([N+](=O)[O-])c3)cc(=O)n12	-0.9	3.8	-1	.	-3	.	i
O=C(CCCn1c(=O)oc2ccccc21)NNC(=O)COc1ccc(F)cc1	-3.3	3.2	-6	0.7	-1	3.3	i
Cc1ccc(C)c(-n2cc(-c3ccc(Cl)cc3)nc2SCC(=O)NC2CCS(=O)(=O)C2)c1 (stereo unspecified)	-0.2	-4.5	-8	0.71	4	6.8	.
O=C(CN1C(=O)NC2(CCCC2)C1=O)NNC(=O)c1ccccc1	-1.6	2.2	-3	0.64	-3	0.2	i
O=C(CCC1CCCC1)NCCS(=O)(=O)N1CCN(c2ccccc2)CC1	3.0	-2.2	4	0.7	-1	2.8	i
COc1cc2c(cc1OC)C(=O)CCS2	2.0	-0.5	-4	0.73	-1	-22	.
O=C(CNC(=O)c1ccccc1)NCCCSc1ccccc1	4.7	0.6	-3	0.71	-2	1.8	i
COC(=O)c1ccc2c(=O)n(Cc3ccco3)c(SCC(=O)Nc3ccc(C)c(Cl)c3)nc2c1	8.5	-3.7	100*	0.71	0	-9.2	.
COc1ccc(OC)c(C2c3[nH]c4ccccc4c3C[C@H]3C(=O)N(CCCOC(C)C)CC(=O)N23)c1 (stereo partly specified)	1.5	2.5	.	0.69	2	-0.2	i
O=C(NNC(=O)c1sc2ccccc2c1Cl)Nc1ccc(Cl)cc1	1.9	1.7	-12	0.69	1	0.9	.
COc1cc(OC)c(OC)cc1/C=N/n1c(COc2ccccc2)n[nH]c1=S	1.9	-9.1	-3	.	6	.	i
COc1ccc(C2=NS(=O)(=O)N(C)C(C(=O)NCc3ccc4c(c3)OCO4)=C2)cc1	2.1	-2.2	-3	0.67	1	0.7	i
C/C(=N\NC(=O)c1nnn(-c2nonc2N)c1C(C)C)c1ccc2ccccc2c1	-1.2	0.4	4	.	0	.	i
C=CCc1cccc2cc(C(=O)NC3CCCC3)c(=O)oc12	-0.7	3.8	6	0.66	-17	-12	i
COc1ccc(CC(=O)NC(C)c2nnc(SCC(=O)Nc3ccccc3)n2C)cc1 (stereo unspecified)	1.5	0.3	10	0.68	-7	0.7	i
CC(C)=NNC(=O)C1=NNC(=O)C1	0.8	-0.1	52	0.68	4	1.2	i
CCOc1ccc(Cn2c(C)nc([N+](=O)[O-])c2SCC(O)CCl)cc1[N+](=O)[O-] (stereo unspecified)	1.1	8.0	1	0.66	-6	8.0	i
CC1CCc2c(sc3[nH]c(=S)n(C)c(=O)c23)C1 (stereo unspecified)	2.4	1.6	7	0.66	7	3.6	i
Cn1c(N2CCN(C(c3ccccc3)c3ccccc3)CC2)nc2c1c(=O)[nH]c(=O)n2C	-1.2	0.1	-4	0.71	34	0.2	i
CC(Sc1n[nH]c(-c2cccs2)n1)C(=O)N1CCCC1 (stereo unspecified)	1.8	2.9	-3	0.7	-7	1.5	i
COCCn1c(=N)c(S(=O)(=O)c2ccc(Br)cc2)cc2c(=O)n3ccccc3nc21	-0.1	-0.9	-4	0.71	-7	-77	i
Cc1cc(C(=O)Nc2ccc(CC(=O)O)cc2)c(C)o1	4.0	-5.6	5	0.61	3	2.1	i

Single values from above.
Result for COCCn1c(=N)c(S(=O)(=O)c2ccc(Br)cc2)cc2c(=O)n3ccccc3nc21 in B2AR ag: -7
Result for CN(C)CCCN(C(=O)c1cc(-c2cccs2)nc2ccccc12)c1nc2ccc(F)cc2s1 in UCH37 DUB inh: -4.1

Next compounds:
SMILES	HNF4A DNA FP	LANA-H2B inh	ALR inh	Ecoli growth	B2AR ag	UCH37 DUB inh	FGF22 binding
COCCNC(=O)c1ccc(C(=O)C(=O)c2ccccc2)cc1	-1.3	3.3	.	0.67	-2	-0.9	.
CCCOc1ccc(OCCSc2ncccn2)cc1	-2.4	2.8	-10	0.69	-15	0.5	.
Cc1ccc(C(C(=O)NC2CCCCC2)N(C(=O)c2csnn2)c2ccccc2F)o1 (stereo unspecified)	1.1	1.7	5	0.7	-4	2.2	i
CCc1ccc(OC(C)c2nnc(SCC(=O)Nc3ncccc3C)n2C)cc1 (stereo unspecified)	-4.6	-2.8	-1	0.7	7	-2.0	i
O=C(NCc1cccs1)c1cccnc1Cl	4.1	0.4	-7	0.62	8	-0.8	.
CCCCCCNCc1ccc(Br)cc1	3.7	5.0	1	0.62	-5	0.7	i
CCOC(=O)c1cnc(SSc2ncc(C(=O)OCC)c(N)n2)nc1N	1.2	4.7	27	0.65	-9	2.5	i
CC(C)C(NC(=O)c1ccco1)C(=O)OCC(=O)c1ccccc1 (stereo unspecified)	-0.5	3.3	-1	0.67	2	1.2	i
NC(=O)c1cccc(-c2cnc(N)c(C(=O)c3cccnc3)n2)c1	0.9	.	.	0.66	2	3.7	.
COc1ccc(C(=O)c2ccccc2Cl)cc1	1.8	5.2	-17	0.79	-2	4.3	.
COc1ccc2nc(N3CCCC(C(=O)NCCCN4C(C)CCCC4C)C3)sc2c1 (stereo unspecified)	0.4	4.5	29	0.62	-3	1.7	i
O=C(CCl)NC1(C(F)(F)F)C(=O)Nc2c1c(=O)[nH]c(=O)n2-c1ccccc1 (stereo unspecified)	0.8	-3.2	.	0.67	-6	6.0	i
CCN(CC(=O)NCc1ccc(Cl)cc1)C(=O)c1oc2ccccc2c1C	2.0	-0.6	-2	0.65	-7	2.6	i
Cc1cc(OCC(=O)Nc2ccc3oc(=O)ccc3c2)ccc1Cl	0.1	-1.9	2	0.7	-1	-51	i
C=CCn1c(SCc2c(C)noc2C)nc2cc(C(=O)O)ccc2c1=O	-3.4	-4.1	38	0.72	-3	3.7	.
CCCCCCC(=O)Nc1ccc(S(=O)(=O)Nc2onc(C)c2C)cc1	2.7	0.7	26	0.67	-4	1.2	i
Nc1ccc2nc(-c3ccc(Cl)cc3)[nH]c2c1	-1.0	-7.9	99*	0.71	5	i	i
CCN(Cc1nc2cc(Cl)ccc2c(=O)[nH]1)C(=O)c1cccc(NC(=O)c2cccs2)c1	1.3	6.2	2	0.66	11	1.0	i
N#Cc1ccc(Oc2ccc(/C=N/O)cn2)cc1	1.0	1.8	-18	.	-9	.	.
COc1ccc(CN(CC(=O)NCCc2ccccc2)C(=O)CCC(=O)Nc2cc(C)ccn2)cc1	-2.4	-9.2	-5	0.7	-15	-0.5	i
COc1ccc(C(=O)NCCn2cc(SCC(=O)NCc3ccco3)c3ccccc32)cc1	4.3	-2.0	8	0.71	-7	0.6	.
COc1ccc(S(=O)(=O)Nc2ccccc2C(=O)N2CCCC2)cc1C	-1.4	1.9	5	0.7	8	3.4	i
O=C1NC(=O)C2(COC(c3ccncc3)OC2)S1 (stereo unspecified)	-1.8	-4.3	-10	0.7	15	2.2	i
Cc1cc(COc2ccccc2)oc1C(=O)O	1.3	-1.7	-7	0.7	6	1.7	i
CN(C)S(=O)(=O)c1ccc(C(=O)NC(=O)CSc2ccccc2)cc1	-1.4	-1.9	7	0.65	5	5.1	.

For reference, 2 of the compounds above:
SMILES	HNF4A DNA FP	LANA-H2B inh	ALR inh	Ecoli growth	B2AR ag	UCH37 DUB inh	FGF22 binding
CC(C)C(NC(=O)c1ccco1)C(=O)OCC(=O)c1ccccc1 (stereo unspecified)	-0.5	3.3	-1	0.67	2	1.2	i
NC(=O)c1cccc(-c2cnc(N)c(C(=O)c3cccnc3)n2)c1	0.9	.	.	0.66	2	3.7	.

A draw from above in order of molecular weight, high to low.
SMILES	HNF4A DNA FP	LANA-H2B inh	ALR inh	Ecoli growth	B2AR ag	UCH37 DUB inh	FGF22 binding
COc1ccc(C(=O)NCCn2cc(SCC(=O)NCc3ccco3)c3ccccc32)cc1	4.3	-2.0	8	0.71	-7	0.6	.
COc1ccc2nc(N3CCCC(C(=O)NCCCN4C(C)CCCC4C)C3)sc2c1 (stereo unspecified)	0.4	4.5	29	0.62	-3	1.7	i
CCOC(=O)c1cnc(SSc2ncc(C(=O)OCC)c(N)n2)nc1N	1.2	4.7	27	0.65	-9	2.5	i

Next section
SMILES	HNF4A DNA FP	LANA-H2B inh	ALR inh	Ecoli growth	B2AR ag	UCH37 DUB inh	FGF22 binding
Cc1cccc(NC(=S)N2CCN(c3ccccc3F)CC2)c1C	3.0	-5.2	-3	0.72	-3	2.6	i
CCOc1ccc(-c2cccc(NC(=O)COc3ccccc3)c2)nn1	-4.6	-1.8	-12	0.66	-8	4.3	.
CCCOc1cccc(C2/C(=C(/O)c3ccc(F)cc3)C(=O)C(=O)N2CCN(C)C)c1 (stereo unspecified)	-2.0	2.1	4	0.74	0	9.6	.
COc1ccc(C(=O)NC2CC2)cc1OC1CCN(C/C=C/c2ccccc2)CC1	0.8	5.6	-24	0.69	-7	2.1	i
O=C(CCl)NC(Cc1ccccc1)C(=O)OCC(=O)c1ccc(-c2ccccc2)cc1 (stereo unspecified)	-3.0	.	.	.	-7	.	i
N#C/C(=C/c1ccccc1OCc1ccc(F)cc1)c1ccc(C(=O)O)cc1	-5.0	2.0	58	0.71	10	8.2	i
CC/C=C/C(=O)N1CC2(CC(c3cccc(NC(=O)CCCCC)c3)=NO2)C[C@H]1C(N)=O (stereo partly specified)	2.7	1.4	.	.	-5	3.3	i
O=C(C1CCC1)N(CCc1ccccc1)Cc1nc2ccccc2c(=O)[nH]1	0.9	2.0	-15	0.75	-11	-1.0	.
O=C(CSc1nccn1-c1cccc(Cl)c1)NO	-1.2	0.5	9	0.69	11	3.4	i
Cn1cc(C(=O)N2CCCCCC2)c(=O)c2cc(S(=O)(=O)N3CCCCC3)ccc21	-4.0	-2.5	-4	0.69	2	0.9	i
CCOCCCN(C(=O)c1snc(C(N)=O)c1N)C(C(=O)NC1CCCC1)c1ccc(F)cc1 (stereo unspecified)	-0.2	4.6	-9	0.7	-4	-54	i
Cc1cc(C(=O)CSc2ccccc2)cc(C)c1O	-3.2	1.8	63	0.69	7	6.8	i
Cc1cc2c(cc1C)N[C@]1(C[C@H]3CCCC(=O)N4CC[C@@H](C1)[C@@H]34)C(=NC(C)(C)CC(C)(C)C)N2	2.4	.	.	.	-1	.	i
CCOc1ccc(C(=O)OCCN(C)C)cc1	2.4	2.1	1	0.76	1	1.1	.
CCOc1ccc(NC(=O)CCC(=O)c2ccc(OC)cc2)cc1	-7.8	-3.2	0	0.65	-13	2.5	i
Cc1ccc(C(=O)Nc2cccc(-c3ccc(N4CCOCC4)nn3)c2)cc1	-1.8	2.8	3	0.64	3	-1.0	i
COc1cc(S(=O)(=O)N2CCOCC2)ccc1NC(=O)COC(=O)c1ccc(Cl)nc1	0.5	-18	-9	0.71	6	-0.3	i
O=C(CCNS(=O)(=O)c1ccccc1C(F)(F)F)N1CCCCCCC1	1.5	-6.6	-13	0.65	-6	-0.1	i
CCOC(=O)c1ccc(CSc2ncn[nH]2)o1	0.6	4.2	-9	0.67	6	0.0	.
Cc1nc(NS(=O)(=O)c2ccccc2C)c2c3c(sc2n1)CCC3	.	-2.7	97*	0.75	.	-4.9	.
NS(=O)(=O)c1cccc(NC(=O)CCS(=O)(=O)c2ccc(Cl)cc2)c1	4.6	0.1	-1	0.67	-15	-0.2	i
Cc1ccc(C(=O)COc2ccccc2N2C(=O)c3ccccc3C2=O)cc1	-0.3	-0.6	-9	0.67	-2	6.4	i
O=C(NC1CCCCC1)NS(=O)(=O)c1ccc2c(c1)CCC2	-0.9	.	.	.	0	.	i
CC1C=CCC2C(=O)N(c3ccc(OC(=O)c4ccco4)cc3)C(=O)C12 (stereo unspecified)	-2.1	-3.9	-4	0.7	6	0.3	i

Not all compounds are listed, so the mix of outcomes need not match the whole.
